p53 mut binder – binders of human mutant p53; small molecule microarray binding, anti-GST fluorescence; calls only; hit rate 0.4% among 17,000;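 active = compounds whose four printed spots each glow above background more than chance allows, each with a p-value under 7%; compounds were printed on slides so no solution concentration is given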;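 also: about 2 pmol printed per array spot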
c-Myc SMM – c-Myc (human) binding; P01106; small molecule microarray, His-c-Myc binding, anti-His fluorescence; calls only; hit rate 1.5% among 17,000; AID 624141;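 active = spot fluorescence over background with P-value below 7% in all four replicate spots, showing protein binding; compounds were printed on slides so no solution concentration is given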;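 also: score is binary with 100 for all four spots passing and 0 otherwise; about 2 pmol printed per array spot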
STAT3 SMM – binds human STAT3 on microarray. Small molecule microarray, His-STAT3 binding, anti-His fluorescence. hit rate 0.2% among 17,000. calls only. P40763;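 active = compounds whose four printed spots each show fluorescence over background unusually high for their array block, chance value under 7%; compounds were printed on slides so no solution concentration is given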;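 also: about 2 pmol printed per array spot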
Target sequence (P40763 whole entry, looked up): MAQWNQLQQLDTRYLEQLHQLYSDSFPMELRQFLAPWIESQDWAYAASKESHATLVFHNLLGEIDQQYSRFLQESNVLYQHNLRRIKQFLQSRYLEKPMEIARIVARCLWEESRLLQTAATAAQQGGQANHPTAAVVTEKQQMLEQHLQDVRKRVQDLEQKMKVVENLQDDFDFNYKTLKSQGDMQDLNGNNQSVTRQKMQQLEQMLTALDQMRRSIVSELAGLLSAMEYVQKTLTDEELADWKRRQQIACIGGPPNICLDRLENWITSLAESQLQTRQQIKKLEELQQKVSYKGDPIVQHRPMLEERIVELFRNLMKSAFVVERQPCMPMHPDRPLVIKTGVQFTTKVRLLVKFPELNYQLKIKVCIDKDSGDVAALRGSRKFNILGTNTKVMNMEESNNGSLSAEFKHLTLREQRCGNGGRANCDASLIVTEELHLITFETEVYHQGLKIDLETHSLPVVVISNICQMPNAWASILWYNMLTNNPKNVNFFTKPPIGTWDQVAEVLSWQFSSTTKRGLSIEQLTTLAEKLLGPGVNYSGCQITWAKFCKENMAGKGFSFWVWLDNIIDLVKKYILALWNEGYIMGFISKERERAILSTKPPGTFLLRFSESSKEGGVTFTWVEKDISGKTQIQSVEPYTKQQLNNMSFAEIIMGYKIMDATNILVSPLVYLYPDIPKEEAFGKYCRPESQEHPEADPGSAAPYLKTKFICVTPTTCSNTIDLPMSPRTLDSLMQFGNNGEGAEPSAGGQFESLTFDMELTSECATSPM
ID4 SMM – binders of human ID4 protein. P47928. small molecule microarray, Flag-ID4 binding, fluorescence F/B. calls only. hit rate 1.2% among 31,000;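 active = spot signal over background at p below 0.07 in all four prints; compounds were printed on slides so no solution concentration is given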;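 also: a binder raises fluorescence above local background on the spot; about 2 pmol printed per array spot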
Target sequence (P47928 whole entry, looked up): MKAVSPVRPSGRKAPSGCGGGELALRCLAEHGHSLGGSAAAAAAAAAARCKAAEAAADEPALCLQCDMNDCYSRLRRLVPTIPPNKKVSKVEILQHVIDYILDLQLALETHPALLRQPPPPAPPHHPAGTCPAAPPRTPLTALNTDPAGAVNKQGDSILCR
Calls only; i = inactive; x = no result given; + = active, no number.

| cpd | SMILES | p53 mut binder | c-Myc SMM | STAT3 SMM | ID4 SMM |
| --- | --- | --- | --- | --- | --- |
| 1 | C[C@H](CO)N1C[C@H](C)[C@@H](CN(C)Cc2ccc(C(=O)O)cc2)Oc2ccc(NC(=O)C3CC3)cc2C1=O | i | i | i | i |
| 2 | O=C(O)COc1ccccc1-c1nc(-c2ccccc2)c(-c2ccccc2)[nH]1 | i | i | i | i |
| 3 | C=CCOC(=O)C1=C[C@@H](c2ccc3c(c2)OCO3)C[C@@H](OCCCCO)O1 | i | i | i | i |
| 4 | CN1CCN(CC(=O)Nc2sc3c(c2C#N)CCC(C(C)(C)C)C3)CC1 (stereo not drawn) | i | i | i | i |
| 5 | C[C@@H]1CN([C@@H](C)CO)C(=O)CCCn2cc(nn2)CO[C@@H]1CN(C)Cc1ccncc1 | i | i | i | i |
| 6 | Cc1noc(C)c1NC(=O)Nc1ccc2c(c1)C(=O)N([C@H](C)CO)C[C@@H](C)[C@@H](CN(C)C(=O)C1CCCCC1)OCCCC[C@H](C)O2 | i | i | i | i |
| 7 | NCCCCNS(=O)(=O)c1ccc2ccccc2c1 | i | i | i | i |
| 8 | Cc1noc(C)c1S(=O)(=O)Nc1cccc2c1O[C@@H](CN(C)C(=O)Nc1ccc(C(F)(F)F)cc1)[C@@H](C)CN([C@H](C)CO)C2=O | i | i | i | i |
| 9 | C=C1CC[C@@H]2[C@](C)(CO[C@@H]3O[C@H](CO)[C@@H](O)[C@H](O)[C@H]3O)CCC[C@@]2(C)[C@@H]1CCC1=CCOC1=O | i | i | i | i |
| 10 | Cc1noc(C)c1S(=O)(=O)N(C)C[C@@H]1Oc2ccc(NC(=O)C3CCCCC3)cc2CC(=O)N([C@@H](C)CO)C[C@@H]1C | i | i | i | i |
| 11 | CN(C)c1nc(N)nc(CSc2n[nH]c(-c3ccccc3)n2)n1 | i | i | i | i |
| 12 | Cc1cc(C)nc(/N=C2\NC(=O)CC(C(=O)O)N2c2ccc(Oc3ccccc3)cc2)n1 (stereo not drawn) | i | i | i | i |
| 13 | COC1=CC(=O)O[C@@H](CCc2ccccc2)[C@H]1O | i | i | i | i |
| 14 | O=C(CSc1ccccn1)Nc1c(C(=O)c2ccc(F)cc2)oc2ccccc12 | i | i | i | i |
| 15 | CN1C(=O)N[C@@H]2c3ccccc3O[C@@]1(C)[C@@H]2CO | i | i | i | i |
| 16 | O=C(OC1OC(CO)C(O)C(O)C1O)c1c(O)cc(O)cc1/C=C/c1ccccc1 (stereo not drawn) | i | i | i | i |

Four entries from above, arranged by length of the SMILES, low to high:
| cpd | SMILES | p53 mut binder | c-Myc SMM | STAT3 SMM | ID4 SMM |
| --- | --- | --- | --- | --- | --- |
| 11 | CN(C)c1nc(N)nc(CSc2n[nH]c(-c3ccccc3)n2)n1 | i | i | i | i |
| 14 | O=C(CSc1ccccn1)Nc1c(C(=O)c2ccc(F)cc2)oc2ccccc12 | i | i | i | i |
| 16 | O=C(OC1OC(CO)C(O)C(O)C1O)c1c(O)cc(O)cc1/C=C/c1ccccc1 (stereo not drawn) | i | i | i | i |
| 9 | C=C1CC[C@@H]2[C@](C)(CO[C@@H]3O[C@H](CO)[C@@H](O)[C@H](O)[C@H]3O)CCC[C@@]2(C)[C@@H]1CCC1=CCOC1=O | i | i | i | i |

(listing goes on)
| cpd | SMILES | p53 mut binder | c-Myc SMM | STAT3 SMM | ID4 SMM |
| --- | --- | --- | --- | --- | --- |
| 17 | C[C@H](CO)N1C[C@H](C)[C@@H](CN(C)C(=O)Nc2ccc(C(F)(F)F)cc2)Oc2c(NS(=O)(=O)c3cccs3)cccc2C1=O | i | i | i | i |
| 18 | CNC[C@@H]1Oc2c(NC(=O)c3cnccn3)cccc2C(=O)N([C@@H](C)CO)C[C@@H]1C | i | i | i | + |
| 19 | Cc1noc(C)c1NC(=O)Nc1cccc2c1O[C@H](CN(C)Cc1ccc(Cl)c(Cl)c1)[C@H](C)CN([C@@H](C)CO)C2=O | i | i | i | i |
| 20 | Cc1ccc(NC(=O)C(C)Sc2nnc(-c3cccc([N+](=O)[O-])c3)n2C)cc1 (stereo not drawn) | i | i | i | i |
| 21 | C[C@@H]1CN([C@@H](C)CO)C(=O)c2cc(N(C)C)ccc2O[C@@H]1CN(C)Cc1ccccc1 | i | i | i | i |
| 22 | C[C@@H]1CN([C@H](C)CO)C(=O)c2cc(NC(=O)C3CC3)ccc2O[C@@H]1CN(C)C(=O)Nc1ccc(F)cc1 | i | i | i | i |
| 23 | CC(C)NC(=O)N(C)C[C@@H]1Oc2ccc(NC(=O)CCN3CCOCC3)cc2CC(=O)N([C@@H](C)CO)C[C@@H]1C | i | i | i | i |
| 24 | Cc1cc(C)c(O)c(C(=O)CC2CC(=O)NC(=O)C2)c1 | i | i | i | x |

Among those listed so far, these have a CF3 group:
| cpd | SMILES | p53 mut binder | c-Myc SMM | STAT3 SMM | ID4 SMM |
| --- | --- | --- | --- | --- | --- |
| 8 | Cc1noc(C)c1S(=O)(=O)Nc1cccc2c1O[C@@H](CN(C)C(=O)Nc1ccc(C(F)(F)F)cc1)[C@@H](C)CN([C@H](C)CO)C2=O | i | i | i | i |
| 17 | C[C@H](CO)N1C[C@H](C)[C@@H](CN(C)C(=O)Nc2ccc(C(F)(F)F)cc2)Oc2c(NS(=O)(=O)c3cccs3)cccc2C1=O | i | i | i | i |

(further entries)
| cpd | SMILES | p53 mut binder | c-Myc SMM | STAT3 SMM | ID4 SMM |
| --- | --- | --- | --- | --- | --- |
| 25 | C[C@H](CO)N1C[C@H](C)[C@H](CN(C)Cc2ccc(Cl)c(Cl)c2)Oc2c(NC(=O)C3CCOCC3)cccc2C1=O | i | i | i | i |
| 26 | C[C@H](CO)N1C[C@H](C)[C@@H](CN(C)C(=O)Nc2ccc(C(C)(C)C)cc2)OCc2cnnn2CCCC1=O | i | i | i | i |
| 27 | C[C@@H]1CCCCO[C@@H](CN(C)Cc2ccc(C(=O)O)cc2)[C@H](C)CN([C@@H](C)CO)C(=O)c2cc(NC(=O)Nc3ccc(F)cc3)ccc2O1 | i | i | i | i |
| 28 | Cc1ccccc1NC(=O)Cn1cnc2sc(C)c(C)c2c1=O | i | i | i | i |
| 29 | C[C@@H]1CN([C@@H](C)CO)C(=O)c2cc(NC(=O)NC3CCCCC3)ccc2O[C@@H]1CN(C)S(=O)(=O)c1cccs1 | i | i | i | i |
| 30 | C[C@H](CO)N1C[C@H](C)[C@H](CN(C)S(=O)(=O)c2ccccc2)OCCCC[C@H](C)Oc2ccc(NC(=O)c3ccncc3)cc2C1=O | i | i | i | i |
| 31 | COc1ccc(CN(C)C[C@H]2Oc3ccc(NS(=O)(=O)c4ccccc4)cc3CC(=O)N([C@H](C)CO)C[C@@H]2C)cc1 | i | i | i | x |
| 32 | O=C(NCc1nc2ccccc2[nH]1)C1=C[C@H](C2CC2)C[C@H](OCCCCO)O1 | i | i | i | i |
| 33 | C[C@H](CO)N1C[C@H](C)[C@H](CN(C)CC2CC2)Oc2ccc(NC(=O)Nc3ccc(F)cc3)cc2CC1=O | i | i | i | i |
| 34 | CC(C)Cc1nc(SC(C)C(=O)Nc2cccc(Cl)c2)n[nH]1 (stereo not drawn) | i | i | i | i |
| 35 | O=C1O[C@H](c2ccccc2)[C@H](c2ccccc2)N2[C@H]1[C@@H](C(=O)N1CCCCCCC1)[C@]1(C(=O)Nc3ccc(C#CC4=CCCCC4)cc31)[C@H]2c1ccc(OCCO)cc1 | + | + | i | x |
| 36 | COc1cc(CO)cc(I)c1O[C@H]1C=C(C(=O)NCCO)C[C@@H](N(C(=O)c2cc3ccccc3oc2=O)C2CCCCCC2)[C@@H]1O | i | i | i | x |
| 37 | C[C@H]1CN([C@@H](C)CO)C(=O)Cc2cc(N(C)C)ccc2O[C@@H]1CN(C)S(=O)(=O)c1ccc(F)cc1 | i | i | i | x |
| 38 | C[C@@H]1CCCCO[C@@H](CN(C)S(=O)(=O)c2cn(C)cn2)[C@H](C)CN([C@H](C)CO)C(=O)c2cc(NS(C)(=O)=O)ccc2O1 | i | i | i | i |
| 39 | C[C@H]1CN([C@@H](C)CO)C(=O)c2cccc(NS(=O)(=O)c3ccc(Cl)cc3)c2O[C@H]1CN(C)S(=O)(=O)c1cccs1 | i | i | i | i |
| 40 | C[C@@H]1CN([C@@H](C)CO)C(=O)Cc2cc(NC(=O)NC3CCCCC3)ccc2O[C@H]1CN(C)C | i | i | i | i |
| 41 | C[C@@H]1CN([C@@H](C)CO)C(=O)c2cc(NC(=O)NC3CCCCC3)ccc2O[C@H]1CN(C)C(=O)Nc1ccc(F)cc1 | i | i | i | i |
| 42 | Cc1noc(C)c1NC(=O)N(C)C[C@@H]1Oc2ccc(NS(=O)(=O)c3ccc(F)cc3)cc2C(=O)N([C@H](C)CO)C[C@H]1C | i | i | i | x |
| 43 | N#CCCSc1nnc(-c2ccncc2)n1Cc1ccccc1 | i | i | i | i |
| 44 | COCCCC/C(=N\OCCN)c1ccc(C(F)(F)F)cc1 | i | i | i | x |
| 45 | CN1CCN(C(=O)C2=C[C@H](c3csc4ccccc34)C[C@H](OCc3ccc(CO)cc3)O2)CC1 | i | i | i | x |
| 46 | CC(C)NC(=O)N(C)C[C@@H]1Oc2c(NS(C)(=O)=O)cccc2C(=O)N([C@H](C)CO)C[C@H]1C | i | i | i | x |
| 47 | CCOc1ccc(Br)cc1CNCc1cccnc1 | i | i | i | i |
| 48 | COc1cc(C[C@@H]2CO[C@@H](c3ccc(O)c(OC)c3)[C@@H]2CO)ccc1O | i | i | i | i |
| 49 | Cc1noc(C)c1NC(=O)Nc1ccc2c(c1)C(=O)N([C@@H](C)CO)C[C@@H](C)[C@H](CN(C)Cc1ccccc1)OCCCC[C@@H](C)O2 | i | i | i | x |
| 50 | C[C@@H]1O[C@@H](O[C@H]2[C@H](O)[C@@H](O)[C@H](O[C@H]3[C@H](O[C@H]4CC[C@@]5(C)C(=CC[C@H]6C7C[C@@H]8O[C@]9(CC[C@@](C)(CO[C@@H]%10O[C@H](CO)[C@@H](O)[C@H](O)[C@H]%10O)O9)[C@H](C)C8[C@@]7(C)CCC65)C4)O[C@H](CO)[C@@H](O)[C@@H]3O)O[C@@H]2CO)[C@H](O)[C@H](O)[C@H]1O (stereo partly drawn) | i | i | i | i |
| 51 | Cc1noc(C)c1NC(=O)N(C)C[C@@H]1OCCCC[C@H](C)Oc2ccc(NS(C)(=O)=O)cc2C(=O)N([C@@H](C)CO)C[C@@H]1C | i | i | i | i |
| 52 | Cc1noc(C)c1NC(=O)N(C)C[C@H]1Oc2c(NS(=O)(=O)c3cn(C)cn3)cccc2C(=O)N([C@H](C)CO)C[C@H]1C | i | i | i | i |
| 53 | O=C1CS(=O)(=O)C(c2ccccc2)N1c1ccc(-c2ccccc2)cc1 (stereo not drawn) | i | i | i | i |
| 54 | O=C(C1=C[C@@H](c2ccc(C(F)(F)F)cc2)C[C@@H](OCCCCO)O1)N1CCN(Cc2ccccc2)CC1 | i | i | i | i |
| 55 | C[C@@H]1CN([C@@H](C)CO)C(=O)Cc2cc(NC(=O)Nc3ccc4c(c3)OCO4)ccc2O[C@H]1CN(C)C(=O)Nc1ccc2c(c1)OCO2 | i | i | i | i |

High-throughput results from PubChem.

This is a subset (hit frequency here may not be typical).
